H5N1 antiviral = MDCK cell protection from H5N1 avian flu | inhibition, % at 50 µM | AID 740, 2007 | cytopathic effect, luminescence, 72 h; hits give high values; no value below 0 was filed and about half of the inactive calls have no number; reference of the scale not given here | 96,000 tested, 0.07% active; in the data active means inhibition above about 25%
* marks the source's active call; other numbers are inactive results; i = inactive. These rows are one share of the data (hit frequency here may not be typical).

SMILES	H5N1 antiviral
Cc1ccc(OC(=O)CCc2c(C)nc3ncnn3c2C)cc1	0.0
c1ccc2c(c1)nc1n2CCS1	i
O=c1[nH]c(=O)n(-c2ccccc2Cl)c(O)c1C=NCCN1CCCCC1	i
CC1CC(N(C(=O)c2ccccc2Cl)c2ccccc2)c2ccccc2N1 (stereo unspecified)	0.1
O=C(O)C1=C(C(=O)Nc2ccc(F)c(Cl)c2)CCCC1	i
COc1ccc(C2=CC(c3ccc(Cl)cc3)n3cnnc3N2)cc1OC (stereo unspecified)	2.6
O=S(=O)(c1ccc2c(c1)OCCO2)N1CCC(n2cnc3cc(F)ccc32)CC1	i
COCCNC(=O)CC(NS(=O)(=O)c1ccc(C)cc1)c1ccco1 (stereo unspecified)	1.1
CCC(C)(C)NC(=O)C(c1cccnc1)N(CCOC)C(=O)Cn1nnc2ccccc21 (stereo unspecified)	i
COc1ccc(OC)c(NS(=O)(=O)c2ccc(NC(=O)C3COc4ccccc4O3)cc2)c1 (stereo unspecified)	2.5
O=S(=O)(NC1CCCc2ccccc21)c1cnc[nH]1 (stereo unspecified)	i
Cc1cc(=O)oc2ccc(OC(=O)c3cccc(S(=O)(=O)N4CCOCC4)c3)cc12	3.2
CCOC(=O)Nc1ccc2ncn(C)c(=O)c2c1	1.0
C=CCn1c2ccccc2c2nnc(SCc3ccc4nonc4c3)nc21	i
O=C(c1ccc(Cl)cc1)C1CCN(C(=O)N2CCOCC2)CC1	i
COc1ccc(/C=C2\SC(=NCc3ccccc3)N(Cc3ccccc3)C2=O)cc1OC	0.5
C=CCNC(=O)C1CC(=O)N(c2ccc(OCC(=O)Nc3ccc(OC)cc3)cc2)C1 (stereo unspecified)	i
CCCCCOc1ccccc1C(=O)NCCC(=O)O	0.6
COc1ccc(C(=O)/C=C/c2cccs2)c(OC(=O)c2cccc([N+](=O)[O-])c2)c1	i
CCOC(=O)c1sc(Nc2ccccc2)nc1C	i
O=C1CC(NCc2ccc3c(c2)OCO3)C(=O)N1Cc1ccc2c(c1)OCO2 (stereo unspecified)	i
C=CCON1C(=O)c2ccccc2C1=O	i
CCOC(=O)C1=C(C)N(CCO)C(=O)NC1c1ccccc1 (stereo unspecified)	0.9
Cc1cccn2cc(CNC(=O)c3ccco3)nc12	1.4
Cc1ccc(C(=O)O)cc1S(=O)(=O)N1CCSCC1	0.5

Given bar-delimited: 18 of the compounds above
SMILES | H5N1 antiviral
COCCNC(=O)CC(NS(=O)(=O)c1ccc(C)cc1)c1ccco1 (stereo unspecified) | 1.1
CCC(C)(C)NC(=O)C(c1cccnc1)N(CCOC)C(=O)Cn1nnc2ccccc21 (stereo unspecified) | i
COc1ccc(OC)c(NS(=O)(=O)c2ccc(NC(=O)C3COc4ccccc4O3)cc2)c1 (stereo unspecified) | 2.5
O=S(=O)(NC1CCCc2ccccc21)c1cnc[nH]1 (stereo unspecified) | i
Cc1cc(=O)oc2ccc(OC(=O)c3cccc(S(=O)(=O)N4CCOCC4)c3)cc12 | 3.2
CCOC(=O)Nc1ccc2ncn(C)c(=O)c2c1 | 1.0
C=CCn1c2ccccc2c2nnc(SCc3ccc4nonc4c3)nc21 | i
O=C(c1ccc(Cl)cc1)C1CCN(C(=O)N2CCOCC2)CC1 | i
COc1ccc(/C=C2\SC(=NCc3ccccc3)N(Cc3ccccc3)C2=O)cc1OC | 0.5
C=CCNC(=O)C1CC(=O)N(c2ccc(OCC(=O)Nc3ccc(OC)cc3)cc2)C1 (stereo unspecified) | i
CCCCCOc1ccccc1C(=O)NCCC(=O)O | 0.6
COc1ccc(C(=O)/C=C/c2cccs2)c(OC(=O)c2cccc([N+](=O)[O-])c2)c1 | i
CCOC(=O)c1sc(Nc2ccccc2)nc1C | i
O=C1CC(NCc2ccc3c(c2)OCO3)C(=O)N1Cc1ccc2c(c1)OCO2 (stereo unspecified) | i
C=CCON1C(=O)c2ccccc2C1=O | i
CCOC(=O)C1=C(C)N(CCO)C(=O)NC1c1ccccc1 (stereo unspecified) | 0.9
Cc1cccn2cc(CNC(=O)c3ccco3)nc12 | 1.4
Cc1ccc(C(=O)O)cc1S(=O)(=O)N1CCSCC1 | 0.5

The listing picks up, repeating the 2 entries before the break.
SMILES	H5N1 antiviral
Cc1cccn2cc(CNC(=O)c3ccco3)nc12	1.4
Cc1ccc(C(=O)O)cc1S(=O)(=O)N1CCSCC1	0.5
CN(C1CCCCC1)S(=O)(=O)c1ccc(NC(=O)C2CCCCC2)cc1	4.4
O=C(c1cccs1)N1CCN(c2ccc(F)cc2)CC1	0.5
COc1cccc(C(=O)Nc2cnc(NC(=O)c3ccco3)cc2C)c1	i
FC(F)(F)c1cc(C(F)(F)F)c2ccc(N/N=C/c3ccccc3)nc2n1	i
Cc1sc2c(c1C)C(c1cccs1)=NCC(=O)N2CC(=O)NCc1cccs1	i
N#Cc1c(-c2ccco2)cc(-c2ccc(F)cc2)nc1N	i
O=C(/C=C/c1ccco1)Nc1ccc(Oc2ccc(Cl)cc2)cc1	i
COc1ccc(-c2cc(C(F)F)n3ncc(C(=O)NCC4CCCO4)c3n2)cc1 (stereo unspecified)	3.2
O=S(=O)(NCc1ccccn1)c1ccc2c(c1)OCCO2	1.2
CCOC(=O)CSc1nc2c(sc(=S)n2CCc2ccccc2)c(=O)n1Cc1ccco1	i
CCOC(=O)c1c(C)c(C(=O)NCc2ccc3c(c2)OCO3)c(C)n1C	0.8
CC(C)C(NS(=O)(=O)c1cccc2nsnc12)C(=O)Nc1nc2ccc(Cl)cc2s1 (stereo unspecified)	0.3
COc1ccc(OC)c(C2N(c3ccccn3)C(=O)C3CCCN32)c1 (stereo unspecified)	i
COc1cc(NC2c3ccccc3C(=O)N2c2cc(C)ccn2)cc(OC)c1OC (stereo unspecified)	i
CCn1c(=O)c(=O)n(CC)c2cc(S(=O)(=O)N3CCc4ccccc43)ccc21	6.8
CN(C)S(=O)(=O)c1ccc(NC(=O)N2CCN(c3ccccc3Cl)CC2)cc1	0.3
Cc1cccc(Cn2c(N3CCc4ccccc4C3)nc3c2c(=O)[nH]c(=O)n3C)c1	0.3
CCCn1c(N2CCOCC2)nc2c1c(=O)[nH]c(=O)n2C	0.1
O=C(Cc1cccs1)Nc1cccc(C(=O)Nc2ccco2)c1	i
FC(F)(F)c1cc(-c2cccs2)nc(N2CCOCC2)n1	i
O=C(CSc1oc(-c2ccc(F)cc2)nc1S(=O)(=O)c1ccc(F)cc1)NCC1CCCO1 (stereo unspecified)	i
Cc1nc(OCC(=O)c2ccc(Cl)cc2)c(C#N)c2c1COC(C)(C)C2	i
CS(=O)(=O)Nc1cccc2cccnc12	i
CN1C(=O)/C(=C/c2cn(CC(=O)N3CCCCC3)c3ccccc23)c2ccccc21	0.8
CCOC(=O)c1cnc(-n2cc(C)cn2)nc1Nc1ccccc1OCC	3.5
Later entries:
SMILES	H5N1 antiviral
CN(C)CCCOc1ccc(C(C)(C)c2ccccc2)cc1	i
CCc1ccccc1NC(=O)c1cc2sccc2n1C	i
CCc1cc(C(=O)NNC(=S)NCC2CCCO2)cs1 (stereo unspecified)	i
CCOC(=O)c1ccc(S(=O)(=O)N2CCNCC2)cc1	0.1
N#C/C(C(=O)Oc1ccccc1)=C1\C=CC=CN1	1.0
COc1ccc(/C=N\NC(=O)c2sc(N)nc2C)cc1OC	1.2
CC1CCc2nc(N)c(C#N)c(-c3cccn3C)c2C1 (stereo unspecified)	0.7
O=C1C2ON(c3ccccc3)C(c3cccnc3)C2C(=O)N1c1ccccc1 (stereo unspecified)	0.5
CC1=CC(c2ccc(Cl)cc2)n2nc(NS(=O)(=O)c3ccc(C)cc3)nc2N1 (stereo unspecified)	i
CC(C)(C)c1cc(C(c2cccnc2)N2CCN(CCO)CC2)cc(C(C)(C)C)c1O (stereo unspecified)	i
CCCOC(=O)Nc1sc2c(c1C(=O)OCC)CCC2	i
O=C1C2C3C=CC(C3)C2C(=O)N1Cc1ccc(CN2C(=O)C3C4C=CC(C4)C3C2=O)cc1 (stereo unspecified)	0.5
CCN(CC)S(=O)(=O)c1ccc(-c2ccc(S(=O)(=O)N(CC)CC)cc2)cc1	0.9
Cc1ccc(C(=O)CSc2nc(N)cc(=O)[nH]2)cc1	i
COc1ccc(NC(=O)c2cc3ccccc3o2)cc1	i
CSc1nccc(Nc2ccccc2)c1C#N	i
CCOC(=O)CNC=C(C(=O)OCC)C(=O)OCC	1.0
CC1CCc2nc(N)c(C#N)c(-c3ccncc3)c2C1 (stereo unspecified)	0.7
COc1ccc(CCNC2CC(=O)N(C)C2=O)cc1OC (stereo unspecified)	i
O=C(Cn1nnc(-c2ccccc2)n1)OCc1ccccc1	i
CCC(C)S(=O)(=O)c1snnc1C (stereo unspecified)	i
Cc1sc2nc(CSc3nc4ccccc4c(=O)n3CCCN3CCOCC3)[nH]c(=O)c2c1C	i
Cc1cnc(C(=O)OCC(=O)N2CCN(C(=O)c3ccco3)CC2)cn1	i
Cn1c(=O)c2cn3ncccc3c2n(C)c1=O	1.7
CC1=CCC2C(=O)N(c3ccc(C(=O)N4CCCCCC4)cc3)C(=O)C2C1 (stereo unspecified)	i
Additional compounds follow:
SMILES	H5N1 antiviral
Cn1c(=O)c(-c2cc(Br)ccc2N)nc2ccccc21	i
Cc1c(NS(=O)(=O)c2ccc3c(c2)OCCO3)cccc1-c1nc2cccnc2s1	i
O=C(NCCc1cn2ccccc2n1)c1ccccc1F	0.2
O=C(NCCOC(=O)c1ccncc1)c1ccccc1	1.1
CCc1nc(SCC(=O)N2CCOCC2)c2c(=O)n(C)c(=O)n(C)c2n1	2.5
CC(=O)[C@H]1[C@@H]2C(=O)N(c3cccc(Cl)c3)C(=O)[C@@H]2[C@H]2c3ccccc3C=CN21	i
CC(C(=O)O)C1SC(=O)NC1=O (stereo unspecified)	i
Cc1ccc(OCCNC(=O)c2cncc(Br)c2)cc1C	0.9
O=C1c2ccccc2C(O)N1c1ccc(Cl)cc1 (stereo unspecified)	0.3
COCCOC(=O)C1=C(C)Nc2nc(C)nn2C1c1ccccc1 (stereo unspecified)	i
C=CC1C(N2CCOCC2)C(C)(C)S1(=O)=O (stereo unspecified)	0.3
Cc1nn(-c2ccccc2)c(C)c1/C=N/NC(=O)c1cc(C2CC2)[nH]n1	i
N#CC1=C(N)N(c2ccc(Br)cc2)C2=C(C(=O)CCC2)C1c1cccnc1 (stereo unspecified)	0.2
CC1CCCCC1NC(=O)CN(C)S(=O)(=O)c1cccc2nsnc12 (stereo unspecified)	0.1
O=C(Cc1ccccc1)Nc1ccc2oc(-c3cccnc3)nc2c1	i
CCOC(=O)C1CCCN(C(=O)c2cc3nc(-c4ccc5c(c4)OCO5)cc(C(F)(F)F)n3n2)C1 (stereo unspecified)	0.5
Clc1cccc(NC2=NCCC2)c1	0.1
Brc1ccc2nc3c(n2c1)CCCC3	i
Cc1cccc(NC(=O)NCC(F)(F)F)n1	0.4
O=C1c2ccccc2C(=O)N1c1nc2nccc(-c3ccccc3)n2n1	0.5
CCOP(=O)(c1ccccc1Cl)C1(O)CCCCC1 (stereo unspecified)	i
Cc1ccc(-c2cn3c(n2)CCCC3)cc1	0.6
COCCN(C(=O)c1ccco1)c1nnc(-c2ccc(OC)cc2)s1	0.2
CO/N=C/c1ccc(N2CCN(C(=O)c3cccc(C(F)(F)F)c3)CC2)c([N+](=O)[O-])c1	i
CCSCCOC(=O)C1=C(C)N(C)C(=O)NC1c1cc(OC)ccc1OC (stereo unspecified)	0.4
Carrying on.
SMILES	H5N1 antiviral
O=C(Nc1nccs1)c1cccc(S(=O)(=O)N2CCCCC2)c1	i
COc1ccc(-n2ncc3c(NC(C)C)ncnc32)cc1	i
O=C(CSc1ccc2nnc(-c3ccccc3)n2n1)NCc1ccc2c(c1)OCO2	2.9
CCOc1ccc(S(=O)(=O)Nc2ccccc2C(=O)Nc2ccccc2N2CCOCC2)cc1	i
Nc1nonc1-c1nc2ccccc2n1CC(=O)NC1CCCC1	i
Cc1cc(C(=O)CSc2nnnn2C)c(C)n1CCc1ccc(Cl)cc1	0.1
CN(C(=O)c1ccccc1)c1nc2ccccc2s1	i
COc1cc(NS(=O)(=O)c2ccc(N/C=C(\C#N)c3nc4ccccc4o3)cc2)nc(OC)n1	i
COc1ccc(C(C#N)N2CCCCC2)cc1OC (stereo unspecified)	i
O=C(Nc1ccccc1)N1CCN(Cc2ccccc2)CC1	i
Cc1ccc(C2NS(=O)(=O)N=C2N)cc1 (stereo unspecified)	i
CCCCN(CCCC)CCn1cnc2c([nH]c3ccc(OC)cc32)c1=O	i
CC(=O)OC(C(=O)Nc1ccccc1)C(C)S(=O)(=O)c1ccccc1 (stereo unspecified)	i
Cc1cc(C)c(C(N)=O)c(SCC(=O)c2ccc(Cl)cc2)n1	i
O=C(NCCN1CCCCCC1)c1ccc(N2CCCC2=O)cc1	i
CCc1ccc(NC(=O)c2noc3c2CCCCC3)cc1	i
Cc1ccc(C(=O)C(C)OC(=O)c2n[nH]c(=O)c3ccccc23)cc1 (stereo unspecified)	0.4
COC(=O)c1ccccc1NC(=O)c1sc(N)nc1C	i
CCN(CC)CCN1C(=O)C(=O)/C(=C(/O)c2ccncc2)C1c1ccccc1F (stereo unspecified)	i
CCC(CO)Nc1ccc([N+](=O)[O-])c2cccnc12 (stereo unspecified)	0.3
CCOC(=O)c1c(-c2ccc(OC)cc2)csc1NC(=O)CSc1ccccc1	i
O=C(CSc1nc2ccccc2c(=O)n1NC(=O)c1ccccc1)c1ccc(Cl)cc1	i
CCOc1cc(CNCCSc2nnnn2C)cc(Br)c1OCc1ccccc1	i
COc1cc(NC(=O)NC(C)(C(F)(F)F)C(F)(F)F)cc(OC)c1OC	0.2
Fc1ccc(CSc2nnc(-c3cccnc3)n2Cc2ccco2)cc1	0.4
Next section.
SMILES	H5N1 antiviral
COc1ccc(C(=O)N2CCN(c3ccc(C)cc3C)CC2)cc1OC	0.1
OC(COCc1cccs1)CN1CCCCCC1 (stereo unspecified)	0.6
COc1ccc(C2=CC(c3ccc(OC)c(OC)c3)n3nnnc3N2)c(OC)c1 (stereo unspecified)	i
Cc1ccc(C)c(S(=O)(=O)NCc2ccncc2)c1	0.4
CCC(C)c1cc(S(=O)(=O)N2CCOCC2)ccc1OC (stereo unspecified)	0.5
CC(C)CCNC(=O)C(c1cccs1)N(CC1CCCO1)C(=O)Cn1nnc2ccccc21 (stereo unspecified)	i
Cc1ccc(-c2nnn(CC(=O)N3CCC(C)CC3)n2)o1	i
